# PrP UTR inh: inhibition of PrP 5' UTR reporter expression; 340,000 compounds, 0.35% hits; cell-based PrP 5' UTR mRNA reporter, plate reader; inhibition, % (concentration not given with the values); AID 488862, 2010;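 active means every replicate at 50% or more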;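 further: 0 = median of the neutral control wells; tested in H4 reporter cells; numbers are from one replicate; inactives centre near -14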
# Sa RN4220 lethal: growth inhibition of S. aureus RN4220, primary screen, OD600; 16 h; inhibition, % (concentration not given with the values); 330,000 compounds, 0.33% hits; AID 1259311, 2017;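 active means z-score of -3 or lower and OD600 up to 0.18 on both plates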;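 further: plate controls were untreated cells for no effect and reference antibiotic for full effect; stock transfer was 100 nL into about 80 µL; one replicate is shown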
# Mtb hypoxia inh: PubChem AID 1159583 | M. tuberculosis hypoxia-regulated fluorescent reporter, fluorescence | fluorescence inhibition, % (no concentration beside the values) | 300,000 compounds, 0.1% hits;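 active means 35 to 45% if threefold the growth effect, above 45% if 1.5-fold the growth effect; inactive means the rest, general growth blockers included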;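 further: wells of about 50 µL received 100 nL stock; 0% = vehicle wells and 100% = reference inhibitor wells; whole bacteria with a GFP reporter of the hypoxia response; strong numbers were not always called active; many hits fall short of the cut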
# BJeLR lethal: MLPCN primary cell-based screen for lethality selective to Ras in HRASV12 cells; inhibition, % (concentration not given with the values); 300,000 compounds, 0.17% hits; BJeLR (HRASV12) viability, CellTiter-Glo ATP luminescence, 48 h; reference of the scale not given here;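 active means replicate mean above 50%; inconclusive means above 50% but judged a plate artefact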;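 further: 50 nL library stock added to about 25 µL; numbers are from one replicate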
# Autofluor counter: flagged as autofluorescent in microsphere protease counterscreen; AID 624483; fluorescence intensity (test concentration not listed); compound autofluorescence counterscreen, microsphere flow cytometry; active compounds read high; 360,000 compounds, 3.1% hits;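 active means at least 3 SD above the mean of all compounds, about 16000 in these data; inconclusive means too few beads counted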;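 further: 100 nL of 1 mM stock went into each well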
# ugtP null kill: growth inhibition of ugtP-null S. aureus, primary screen, RN4220 ugtP deletion, OD600. 330,000 compounds, 0.54% hits. AID 1259309, 2017. 16 h; some inactives read as strong as hits. growth inhibition, % (test concentration not listed);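 active means z-score under -3 and OD600 up to 0.15 on both plates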;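 further: plate controls were untreated wells for no effect and antibiotic for full effect; wells of about 80 µL received 100 nL stock; the first replicate is given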
# Mtb hypoxia inh growth: recorded beside Mtb hypoxia inh, whose call it bears; growth inhibition, %; measured here: M. tuberculosis growth (absorbance);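 0% = vehicle and 100% = reference antibiotic; read after six days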
# The depositor's hits bear a star; ? = inconclusive; . = no result given. Random draw from the library; 4% or so of the library scored in one or more.
# Start of the listing, in advance (three entries):
structure	PrP UTR inh	Sa RN4220 lethal	Mtb hypoxia inh	Mtb hypoxia inh growth	BJeLR lethal	Autofluor counter	ugtP null kill
CC1CCN(C(=O)C2Cc3ccccc3CN2S(=O)(=O)c2ccc(F)cc2)CC1 (configuration not stated)	-12	9.8	15	7	-4	2412	-2
O=C(c1ccco1)N1CCN(CCCCOc2cccc3ccccc23)CC1	-22	-3.6	2	8	1	1978	-11
CN1CCN(c2ccccc2NC(=O)c2ccc(-c3cccc([N+](=O)[O-])c3)o2)CC1	-19	3.0	-5	2	3	1755	0

# The whole of this part, repeating the preview:
structure	PrP UTR inh	Sa RN4220 lethal	Mtb hypoxia inh	Mtb hypoxia inh growth	BJeLR lethal	Autofluor counter	ugtP null kill
CC1CCN(C(=O)C2Cc3ccccc3CN2S(=O)(=O)c2ccc(F)cc2)CC1 (configuration not stated)	-12	9.8	15	7	-4	2412	-2
O=C(c1ccco1)N1CCN(CCCCOc2cccc3ccccc23)CC1	-22	-3.6	2	8	1	1978	-11
CN1CCN(c2ccccc2NC(=O)c2ccc(-c3cccc([N+](=O)[O-])c3)o2)CC1	-19	3.0	-5	2	3	1755	0
CCN(CC)S(=O)(=O)c1ccc(/C=C/C(=O)OCC(=O)N(C(C)C)C(C)C)cc1	-5	0.8	14	1	-2	4662	7
Cc1cccc(NC(=O)CCn2c(=O)oc3ccccc32)c1	-15	2.3	9	-1	7	3717	-4
O=C(CN1CCN(C2CCCCC2)CC1)c1ccc2cc[nH]c2c1	-13	-4.5	9	7	-9	6463	-2
Oc1cccc(CN2CCCCC2)c1	-20	0.7	6	-1	4	2479	5
CSc1nnc(Cn2c(=O)sc3ccccc32)n1-c1ccccc1C	-11	3.7	.	.	4	4661	-2
O=C(NCC1CCCO1)c1cccnc1Nc1ccccc1F (configuration not stated)	-20	4.1	6	4	2	10279	1
CCC(=O)NCCc1nc2cc(NC(=O)c3cccc([N+](=O)[O-])c3)ccc2n1C	-22	2.3	10	10	-1	3780	23
CC(C)NC(=O)NC(=O)COC(=O)c1ccc(F)cc1F	-17	-5.7	10	3	14	1943	-5
CCN(CC)S(=O)(=O)c1cccc(-c2n[nH]c(=S)n2/N=C/c2ccc(OC)cc2)c1	-24	.	.	.	-20	2365	.
O=C1C2CCCCN2C(=O)N1CCCN1CCN(c2ccc(F)cc2)CC1 (configuration not stated)	-17	-2.2	-2	8	5	4508	-7
Cc1ccc(/C=C(\NC(=O)c2ccccc2)C(=O)N2CCCC2C(=O)O)cc1 (configuration not stated)	-7	1.0	7	12	.	4602	5
Cn1c(=O)c2c(O)c([N+](=O)[O-])c(=O)n(C)c2n(C)c1=O	-6	3.4	-9	-3	-8	3768	-4
CCC(=O)N1CCc2cc(S(=O)(=O)NC(Cc3ccccc3)C(=O)NC3CCCCC3)ccc21 (configuration not stated)	-17	3.9	8	2	-2	2152	2
Cc1nc(-c2ccccc2)sc1C1(C)CC(c2ccc([N+](=O)[O-])cc2)=NO1 (configuration not stated)	-32	4.0	5	8	10	4447	13
O=C(NC1CCCCCCC1)c1ccc(Br)o1	-22	-0.7	.	.	-4	3721	-8
COc1ccc(C2C3=C(CC(C)(C)CC3=O)N(CC(=O)O)C3=C2C(=O)CC(C)(C)C3)cc1OC	-5	4.2	14	18	-6	3801	9
Cc1[nH]c(=O)[nH]c(=O)c1NS(=O)(=O)c1ccccc1	-75	4.3	4	10	2	2285	4
C=CCOc1cccc(CNn2cn[nH]c2=S)c1	-18	4.3	2	4	-12	5700	6
O=C(NCc1cccnc1)c1ccc(-c2ccccc2[N+](=O)[O-])o1	2	4.4	1	1	-9	2432	6
O=C1OCCN1CCNCc1cn(-c2ccc(F)cc2)nc1-c1ccccc1Cl	-9	13	-5	-8	.	3842	4
COc1ccc(C(=O)N2CCC(N3CCN(c4ccccc4)CC3)CC2)cc1	-19	1.4	.	.	-2	2741	-2
COc1ccc(Cl)cc1NC(=O)CN1CCN(S(=O)(=O)N2CCCCC2)CC1	-19	-2.1	-1	-1	-5	3733	6
C[C@@H]1NC(=O)N(CCCn2ccnc2)C1=O	-15	0.9	6	-3	4	4079	0
COc1ccccc1NC(=O)c1ccc(NC(=O)COC(=O)c2cccnc2Cl)cc1	-18	2.2	8	8	.	3151	3
O=C(CN1C(=O)CCC1=O)Nc1nc(-c2cccs2)cs1	-6	4.5	0	5	4	3504	-2
COCCCNC(=S)NN=Cc1ccc(OC)c(Br)c1	.	2.1	-2	-9	.	.	1
CCOC(=O)c1cnc2ccc(C(=O)OC)cc2c1NCCc1ccc(OC)c(OC)c1	-5	4.8	4	10	12	2177	-11
O=C(Nc1ccc(Cl)cc1)N1CCCN(Cc2ccc(F)cc2)C1	-23	-4.0	20	14	11	11758	-21
O=C(CN1C(=O)c2ccccc2C1=O)Nc1cccc2cccnc12	-3	1.3	-1	4	3	5918	3
CS(=O)(=O)N(CC(=O)NC1CCCCC1)c1cccc(Cl)c1	-2	-1.4	-5	9	-2	5090	0
Cc1nn(C)c(C)c1NC(=O)CSc1nc(-c2ccccc2F)nc2c1cnn2-c1ccccc1	-32	3.8	4	-1	.	4285	-2
CCS(=O)(=O)N1CCN(C2CCC(C)CC2)CC1 (configuration not stated)	-22	1.4	11	2	3	7206	9
COc1cccc(C2(O)CCSCC2CN(C)C)c1 (configuration not stated)	-13	4.5	10	10	-10	10912	-2
Cc1ccc(-c2cc(C(=O)N3CCC(C)CC3)c3ccccc3n2)cc1	-15	2.7	8	12	.	5390	-4
CC(OC(=O)Cn1cc(C(F)(F)F)ccc1=O)C(=O)NC(C)c1ccc(Cl)cc1Cl (configuration not stated)	-6	28	9	14	.	8744	0
O=C(c1cccc(Cl)c1)C1CCCN(Cc2ccon2)C1 (configuration not stated)	-21	6.0	10	12	3	1983	6
Cc1c(-n2cccc2C=O)cccc1[N+](=O)[O-]	8	4.0	1	-4	6	4487	-1
CC(NCCC(c1ccccc1)c1ccccc1)c1ccccc1 (configuration not stated)	5	-6.3	1	0	12	6389	-14
O=C(O)c1cccc(-n2nnnc2SCc2ccccc2Cl)c1	-7	8.9	-1	-3	3	4166	18
CO/N=C/c1cccn1-c1nccc(OC)c1C#N	-20	.	.	.	-6	4478	.
CCC(CO)Oc1cc(NCc2ccc(O)cc2)c2ncn(C(C)C)c2c1 (configuration not stated)	-20	0.2	8	13	.	3528	-7
CCn1c(SCc2nc3ccccc3c(=O)[nH]2)nnc1-c1ccncc1	-8	2.4	2	11	2	10286	-2
CN(C)C(C)(C)C#CCC(c1ccccc1)c1ccccc1	-35	2.2	-1	-7	4	2244	2
CCN1CCN(Cc2nnc(-c3ccccc3)o2)CC1	-14	1.9	18	1	8	2875	6
Cc1cccc(C(=O)N2CCCC(CCC(=O)N3CCN(c4ccccn4)CC3)C2)c1C (configuration not stated)	-16	4.3	7	2	9	4431	4
COc1ccc(C(=O)NCc2nnc(SCC(=O)NCc3ccco3)o2)cc1	-5	5.5	17	10	1	5222	0
O=C(CCCCCNC(=O)c1ccccc1)N/N=C/c1ccc(F)cc1	-6	.	.	.	-5	4371	.
O=C(O)c1cc(-c2ccco2)nc2ccccc12	-10	6.4	7	9	4	2947	-5
O=C(O)c1[nH]c2ccccc2c1C(c1ccccc1)c1c(C(=O)O)[nH]c2ccccc12	-22	27	0	12	-2	3286	7
Cn1c(SCC(=O)Nc2nccs2)nnc1-c1ccco1	-21	1.3	.	.	3	2781	-5
COc1ccc(-c2coc3cc(O)ccc3c2=O)cc1OC	-9	3.3	.	.	2	2533	-1
Oc1ccc(C[C@@H]2CNC(=S)N2CCc2cc(C(F)(F)F)cc(C(F)(F)F)c2)cc1	-13	.	.	.	-8	3462	.
COc1nc2ccccc2c(=O)n1OCC(C)C	-21	8.2	10	21	6	10780	-2
O=C(Cc1c(Cl)cccc1Cl)Nc1ccncc1	-12	7.5	14	13	0	4840	-7
O=C(c1cc([N+](=O)[O-])cc([N+](=O)[O-])c1)N1CCCc2ccccc21	-9	-3.1	5	20	-11	4060	1
CCCSc1nnc(CNS(=O)(=O)c2ccc(C)cc2)n1C	4	-0.3	3	14	-3	?	0
CC(NC(=O)CCCc1nnc2n(C)c(=O)c3sccc3n12)c1ccccc1 (configuration not stated)	-11	-2.2	-6	7	6	3856	-9

# (further entries)
structure	PrP UTR inh	Sa RN4220 lethal	Mtb hypoxia inh	Mtb hypoxia inh growth	BJeLR lethal	Autofluor counter	ugtP null kill
CCOC(=O)C1CCCN(S(=O)(=O)c2cc3c4c(c2)CCN4C(=O)CC3)C1 (configuration not stated)	-9	2.3	3	3	11	?	0
COc1cccc2cc(/C(C)=N/Nc3nc(-c4cc(C)ccc4C)cs3)c(=O)oc12	2	.	.	.	5	5975	.
COc1cccc(-c2nc(C=O)cs2)c1	-6	1.7	4	8	-2	1998	1
Cc1ccc(NC(=O)C2CCN(S(=O)(=O)c3ccc(C(C)(C)C)cc3)CC2)cc1S(=O)(=O)N1CCOCC1	-16	-0.1	3	9	.	4073	-3
O=C(COc1cccc2c1CCN(Cc1ccccc1)C2=O)NCc1ccco1	-5	4.6	8	2	3	2363	1
Cc1sc2ncnc(SCC(=O)c3cccs3)c2c1C	-33	6.8	25	26	-5	16770*	8
C[C@H](NC(=O)C1CCN(S(=O)(=O)c2ccccc2)CC1)C(=O)NCc1ccco1	-8	4.7	-3	-6	9	3655	4
O=C(Nc1ccc2c(c1)OCO2)C1CCCCN1S(=O)(=O)c1ccccc1 (configuration not stated)	-10	2.0	.	.	1	2167	-5
COc1nc(C)cc(C)c1S(=O)(=O)c1ccc(Cl)cc1	-53	2.3	6	3	4	4032	7
Cc1cc(C)n(CC(=O)NN=Cc2cccs2)n1	.	8.0	5	10	.	.	3
COC(=O)c1ccc(NS(=O)(=O)c2cc(-c3cc(C)no3)ccc2OC)cc1	-25	5.0	-7	-4	-9	5839	-3
Cc1ccc(NC(=O)CC2C(=O)OCC3CCCCN32)cc1Cl (configuration not stated)	-8	0.8	2	12	13	2031	19
CC(=O)Cc1nsc(NC(=O)c2ccco2)n1	-23	0.6	11	8	-4	10396	15
CC[n+]1c(/C=C/c2c[nH]c3ccccc23)ccc2cc(C)ccc21	-25	96*	10	10	.	.	97*
CC(=O)Nc1ccc(Nc2ncnc3c2nnn3Cc2ccccc2Cl)cc1	-8	-1.8	8	0	25	3021	2
C=CCSC1=N/C(=C\c2cc(OCC)c(OC(C)=O)c([N+](=O)[O-])c2)C(=O)S1	-13	77	9	1	1	2067	67
Cc1ccc(C(=O)N/C(=C\c2ccc(-c3cc(Cl)ccc3Cl)o2)C(=O)NCc2cccnc2)cc1	-22	-8.5	2	6	-3	2530	-21
COc1ccc(NC(=O)CSc2nc3n[nH]c(C)c3c(=N)n2-c2ccc(Cl)c(C)c2)cc1OC	5	3.3	10	3	4	4714	-13
O=C(Cn1ccc(NC(=O)OCc2ccccc2)nc1=O)NCCCn1ccnc1	-21	3.5	4	2	.	4173	-2
c1ccc2c(CCNCc3ccc4c(c3)OCO4)c[nH]c2c1	-4	3.4	4	-5	2	6072	-12
Nc1c(Cl)cc(-c2cn(CCC(=O)O)c(-c3ccc(Cl)nc3)n2)cc1Cl	-20	5.6	18	12	.	3618	-1
Cc1[nH]c2ccccc2c1CN1CCc2ccccc2C1	-21	0.5	-5	2	12	10143	-13
Cc1ccc(NC2=NC(c3ccccc3)n3c(nc(C)cc3=O)N2)c(C)c1 (configuration not stated)	13	0.1	-1	2	-4	22223*	1
COc1ccc(-c2cc(CCCC(=O)NCCc3cc(OC)ccc3OC)no2)cc1	.	8.0	10	6	-11	8537	-12
CC(C)c1ccc(N2C(=O)CC(Sc3ncn[nH]3)C2=O)cc1 (configuration not stated)	-13	6.8	-13	-4	-4	3522	20
Cn1c(-c2ccc3c(c2)OCO3)cnc1NCc1cccc(Cl)c1	-11	-2.9	-3	16	-2	9450	-10
Cc1cc(C=C2C(=O)c3ccccc3C2=O)c(C)n1-c1ccc(Cl)cc1	-86	.	.	.	7	20919*	.

# Screens as filed in PubChem BioAssay.
